# HNF4A DNA FP: change in binding of human HNF4 alpha to DNA | 0.3% of 360,000 active | HNF4a-FITC DNA binding, fluorescence polarization, 1 h | activity change, % at 10 µM | P41235; in the data active means activity change above about 30%, passing the limit was not always enough;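 further: controls were the assay level and a saturating level of protein; the project sought stronger binding though the title names inhibitors; some compounds called inactive have numbers as strong as hits; positive values seem to mean higher polarization but the record does not say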
# E coli growth: inhibitors of Escherichia coli growth | OD600 absorbance (no concentration beside the values) | OD600, 23 h; hits give low values | 0.21% of 330,000 active;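 active means OD600 absorbance below the run mean of sample wells minus 3.6 SD, in any replicate, cut at about 0.56 in these data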;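 further: stock transfer was 300 nL into about 60 µL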
# Bfl-1 A1 inh: inhibitors of the anti-apoptotic protein A1, read as caspase activation. caspase activation, % (test concentration not listed). MEF A1-2A-BIM cells, Caspase-Glo 3/7 luminescence, 3 h; percent of clofoctol response, vehicle zero. 0.066% of 330,000 active;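 active means over half of replicate activation scores above 10%, or exactly half above 10 with the replicate mean above 10; inconclusive means replicate mean below 10 yet half the replicates above 10; inactive means over half of replicates below 10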;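 further: wells of about 30 µL received 50 nL stock; many hits fall short of the cut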
# Beta2AR agonist: activates human beta-2 adrenergic receptor causing internalization; P07550; Am2.2-beta2AR cells, FAP receptor internalization, flow cytometry; reference of the scale not given here; response, % (test concentration not listed); 0.43% of 340,000 active; AID 504454;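 active means response above a set limit, near 3 SD of response in nonfluorescent compounds, cut at about 42% in these data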;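 further: stock transfer was 100 nL into about 11 µL; a reference agonist was the positive control; negative values mostly stem from fluorescent compounds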
# Target sequence (P07550 whole entry, looked up): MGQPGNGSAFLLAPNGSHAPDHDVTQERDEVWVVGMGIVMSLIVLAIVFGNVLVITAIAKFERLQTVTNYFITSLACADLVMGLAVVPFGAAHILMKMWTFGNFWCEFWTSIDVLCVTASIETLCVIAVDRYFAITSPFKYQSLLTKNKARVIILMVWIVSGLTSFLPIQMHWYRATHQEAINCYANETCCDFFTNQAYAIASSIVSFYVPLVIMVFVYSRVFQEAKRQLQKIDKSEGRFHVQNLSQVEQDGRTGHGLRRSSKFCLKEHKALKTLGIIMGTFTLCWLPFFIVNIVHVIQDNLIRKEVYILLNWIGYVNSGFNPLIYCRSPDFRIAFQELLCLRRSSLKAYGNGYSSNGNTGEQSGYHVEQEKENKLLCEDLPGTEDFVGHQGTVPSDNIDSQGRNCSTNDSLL
# UCH37 inh: human UCH37 deubiquitinating enzyme inhibition; purified proteasome/UCH37, Ub-AMC cleavage fluorescence; inhibition, % (test concentration not listed); 0.33% of 330,000 active; AID 588478;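 active means mean of two replicates above 20%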;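 further: 0% = compound-free wells with enzyme and 100% = wells lacking proteasome; stock transfer was 100 nL into about 20 µL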
# Target sequence (Q9Y5K5 whole entry, looked up): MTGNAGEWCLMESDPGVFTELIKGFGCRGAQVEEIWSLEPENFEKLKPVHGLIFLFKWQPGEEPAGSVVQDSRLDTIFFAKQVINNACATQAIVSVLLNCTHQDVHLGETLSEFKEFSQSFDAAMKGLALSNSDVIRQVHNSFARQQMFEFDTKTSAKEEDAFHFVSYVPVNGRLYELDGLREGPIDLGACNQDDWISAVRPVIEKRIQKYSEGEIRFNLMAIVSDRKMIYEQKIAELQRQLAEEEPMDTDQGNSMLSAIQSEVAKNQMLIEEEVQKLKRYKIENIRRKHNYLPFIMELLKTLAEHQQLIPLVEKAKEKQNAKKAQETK
#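 Assay system: Proteasome-bound UCH37. Buffer or medium: pH 7.4 Tris-HCl (50 mM) with ovalbumin, ATP-MgCl2, DTT. Incubation: 30 min preincubation with enzyme, 25 min cleavage at room temperature. Measured by: fluorescence, ex 355 nm, em 460 nm. Read-out basis: percent inhibition. Control set: wells without proteasome as full block, compound-free enzyme plus substrate as uninhibited.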
# LANA-H2B inh: blocks KSHV LANA binding to histone H2A/H2B | 0.6% of 320,000 active | AID 2629 | cell-free LANA-H2A/H2B peptide, fluorescence polarization | Q9QR71 | inhibition, % (test concentration not listed); in the data active means inhibition mostly above about 10%, no sharp cut-off; inactive means mostly below about 6.7%;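 further: stock transfer was 7.5 nL into about 10 µL; 0% = median of vehicle wells and 100% = median of positive control wells; one replicate is shown; the record names a cut of 25% in any replicate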
# Vif TR-FRET: inhibitors of Vif binding to APOBEC3G peptide, primary screen, biochemical, TR-FRET, GST-Vif 1-94, biotin-A3G peptide, dose response retest (AID 1117319); TR-FRET GST-Vif / biotin-A3G peptide binding; higher % means a stronger effect; test concentration not given here; strong numbers were not always called active; inhibition, %, or IC50 in µM where a hit was titrated; 0.57% of 260,000 active;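 active means above the screen mean plus three standard deviations and confirmed in dose response; inconclusive means results disagree or hit not tested in dose response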;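 further: Vif residues 1-94 fused to GST binding biotinylated APOBEC3G peptide 110-148; 0% = full assay without inhibitor and 100% = GST in place of GST-Vif; retest series ran down from 100 µM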
# * hit, by the source's call; i = inactive; ? = inconclusive; nt = no result given.
SMILES,HNF4A DNA FP,E coli growth,Bfl-1 A1 inh,Beta2AR agonist,UCH37 inh,LANA-H2B inh,Vif TR-FRET
Cn1nc(C(=O)N2CCN(c3ccc([N+](=O)[O-])cc3)CC2)c2c1-c1ccccc1S(=O)(=O)C2,-1.6,0.68,1.5,2.0,-0.1,0.1,1.2%
CN(C)c1cccc(C(=O)N(C)C2CCCN(Cc3ccccc3F)C2)c1 (stereo unspecified),-0.7,0.683,0.2,-2.0,3.0,12.9,27.5%
Cc1cc(C)c(S(=O)(=O)Cc2ccccc2)c(OC(C)C)n1,1.0,0.66,1.1,-1.8,0.7,1.8,6.5%
O=C(NCCCCNC(=O)c1ccccc1Br)c1ccccc1Br,-0.8,0.656,0.2,1.1,1.5,3.4,nt
CCOc1ccc(CCNC(=O)Nc2ccccc2)cc1OCC,2.5,0.66,-1.7,2.4,1.6,-1.4,1.7%
O=C(NCC1COc2ccccc2O1)c1ccc(Cl)cc1 (stereo unspecified),0.3,0.69,-1.2,-6.4,1.2,-0.4,-0.3%
Cc1cccc2sc(N(CCCN(C)C)C(=O)CCS(=O)(=O)c3ccccc3)nc12,3.0,0.662,0.2,23.3,4.5,-4.8,-5.1%
Cc1nc2ccn(Cc3ccccc3)c(=O)c2cc1C(=O)N1CCN(c2ccc(F)cc2)CC1,2.3,0.672,0.0,8.4,-5.2,-3.3,nt
Cc1ccc(S(=O)(=O)NCc2ccc(C(=O)NCCc3ccc(S(N)(=O)=O)cc3)cc2)cc1,0.3,0.648,0.1,4.0,7.1,0.0,-4.7%
Cc1ccc([C@@H]2CC=C(C(=O)O)[C@H](c3ccc(F)cc3)N2S(=O)(=O)c2ccccc2C)cc1,1.6,0.71,-1.5,-1.4,6.5,4.2,-1.2%
CCOc1ccc(N(C(=O)c2ccc3c(c2)OCO3)C2C=CS(=O)(=O)C2)cc1 (stereo unspecified),1.0,0.728,0.5,6.5,3.4,-1.1,-4.4%
CC(=O)Nc1ccc(S(=O)(=O)Oc2ccc(/C=C3\SC(N)=NC3=O)cc2)cc1,1.6,nt,-0.3,-0.1,nt,-1.9,22.9%
CCC1CCCCN1CCCNC(=O)c1cn(C)c2ccc(S(=O)(=O)N(C)C3CCCCC3)cc2c1=O (stereo unspecified),3.9,0.634,0.5,11.9,1.6,6.8,nt
N=c1c(S(=O)(=O)c2ccc(Cl)cc2)cc2c(=O)n3ccccc3nc2n1Cc1ccco1,4.9,nt,0.2,0.0,nt,3.9,nt
CCn1cc(C(=O)N[C@@H](CCSC)C(=O)NCCO)c(=O)c2cc3c(cc21)OCO3,-2.2,0.682,0.8,-2.4,-11.4,-3.3,5.4%
CCOC(=O)N1CCN(C(=O)c2ccc(N(Cc3ccc(Cl)cc3)S(C)(=O)=O)cc2)CC1,2.7,0.676,0.3,2.1,1.6,-4.1,nt
Cc1cc(C)c(CN2CCC(n3nccc3NC(=O)CCOc3ccccc3)CC2)cc1C,1.8,0.686,-2.4,-2.0,6.3,-3.7,nt
COc1ccc(NC(=S)N/C(=N/S(=O)(=O)c2ccc(C)cc2)c2ccccc2)cc1,1.2,nt,-1.0,6.2,nt,2.8,2.0%
CCN(CC)c1ccc(S(=O)(=O)Nc2cc(Cl)ccc2Cl)cc1NC(=S)NC(=O)C1CCCC1,-0.5,0.711,-0.4,11.9,1.4,-3.1,nt
Oc1ccc(Cl)cc1CNc1nccs1,2.5,0.66,0.8,10.2,6.1,5.6,-4.5%
Cc1c(NC(=S)NC(=O)C2CCCCC2)c(=O)n(-c2ccccc2)n1C,-2.8,0.698,0.6,-3.0,-3.3,-2.8,3.3%
CC(C)/C=N/Nc1nc2c(c(=O)n(C)c(=O)n2C)n1C,5.0,nt,0.5,3.1,nt,-1.9,?
C/C(=N\NC(=O)c1nn(C)cc1Br)c1ccncc1,-0.8,nt,-0.4,-14.3,nt,1.1,?
COc1cc(NC(=O)COc2ccc3c(C)cc(=O)oc3c2C)cc(OC)c1OC,1.1,0.727,-0.9,10.8,-6.5,0.8,4.3%
O=S(=O)(CC(CN1CCCCC1)N1CCCCC1)c1ccccc1 (stereo unspecified),-0.4,0.707,-0.1,2.5,4.6,2.3,nt
CCN1CCN(S(=O)(=O)c2ccc(OC)c(NC(=O)c3ccccc3F)c2)CC1,5.1,0.688,0.9,-2.7,0.4,-6.8,-12.0%
CN(C)CCn1c2c(c(SCC(=O)Nc3cccc4ccccc34)nc1=O)CCC2,-2.9,0.695,0.0,-0.9,3.9,-2.1,-3.2%
O=C(CCNC(=O)C1CCN(S(=O)(=O)c2ccc(F)cc2)CC1)Nc1nccs1,-2.0,0.672,-3.5,9.0,0.7,2.1,24.8%
CN1CCN(c2ccc(C(=O)c3ccccc3)cc2[N+](=O)[O-])CC1,3.7,0.677,-0.1,7.5,5.4,-6.8,8.1%
CCCCCCCC1=CC2=CC(=O)C(C)(OC(C)=O)C(=O)C2=CN1CCc1ccccc1 (stereo unspecified),nt,nt,0.3,nt,1.1,-4.6,30.4%
CC(C)(O)C#Cc1ccc(C(=O)Nc2ccc3c(c2)OCO3)s1,2.2,0.681,-7.6,3.7,1.9,2.7,nt
CCc1ccccc1C1C(=O)c2ccccc2C1=O,1.1,0.658,0.2,-2.7,2.8,-2.2,nt
CCOC(=O)c1c(NC(=O)COC(=O)c2ccc(Cl)nc2)sc(C(=O)N(C)C)c1C,-0.5,0.688,0.1,-5.5,2.7,-1.8,nt
CCOC(=O)C1=C(C)N=C2SCCC(=O)N2C1c1cccs1 (stereo unspecified),-1.2,0.787,0.5,-3.5,5.3,2.8,-3.9%
CCOC(=O)CNC(=O)C(CO)NC(=O)OCc1ccccc1 (stereo unspecified),-0.5,0.698,1.1,-3.1,0.6,-0.6,3.9%
CCC(CC)NC(=O)Cn1c(C(C)NC(C)=O)nc2ccccc21 (stereo unspecified),2.4,0.681,0.0,1.8,1.2,0.7,-3.0%
COc1ccc(OC)c(C(c2c(C)[nH][nH]c2=O)c2c(C)[nH][nH]c2=O)c1,-3.0,0.639,0.2,-12.0,1.6,1.5,-4.7%
COc1ccc(-c2nc(CS(=O)CC(=O)NCc3ccccc3)c(C)o2)cc1OC (stereo unspecified),-1.1,0.684,-1.6,1.3,4.9,-2.1,7.7%
COc1cccc(-n2nnnc2SCC(=O)Nc2ccccc2OC)c1,0.4,0.673,0.0,0.2,1.4,-4.6,nt
COc1ccc2c(c1)N(C(=O)CSc1n[nH]c(C)n1)C(C)(C)C=C2C,-0.2,0.738,0.0,2.4,2.3,2.1,19.8%
COc1ccc(/C=C(/NC(=O)c2ccc(OC)c(OC)c2)C(=O)NCCCn2ccnc2)cc1,2.5,0.645,0.0,4.0,3.1,0.7,nt
Cc1cccc(/C=N/NC(=O)c2cc3c(s2)-c2ccccc2CC3)c1,-1.3,nt,3.7,6.0,nt,2.8,-6.7%
Cn1c(C(=O)OC(C(=O)NC2CCCC2)c2ccncc2)cc2sccc21 (stereo unspecified),4.4,0.691,0.4,-15.3,0.0,-0.8,3.3%
O=C(c1cccc(C(F)(F)F)c1)N1CCN(S(=O)(=O)c2ccc(Cl)s2)CC1,-1.2,0.726,-0.4,-3.0,1.3,-0.9,nt
CCCCC1CCC(C(=O)N(CC(C)C)c2c(N)n(CCCC)c(=O)[nH]c2=O)CC1 (stereo unspecified),1.7,0.656,0.6,-9.0,0.2,-13.4,0.4%
CCOC(=O)c1c(C2COc3ccccc3O2)csc1NC(=O)c1ccco1 (stereo unspecified),2.3,0.723,-1.3,-8.8,-74.9,0.4,-7.9%
CCC(C)[C@H](N)c1cn([C@@H](CCCCN)C(=O)N2CCNCC2)nn1 (stereo partly specified),3.6,nt,0.8,3.0,3.2,1.7,-3.2%
O=C(Nc1cc(S(=O)(=O)N2CCOCC2)ccc1Cl)C1CCC1,3.4,0.667,0.5,-8.4,2.6,-5.0,-3.1%
O=c1ccc(-c2ccc(S(=O)(=O)N3CCN(c4cccc(Cl)c4)CC3)o2)n[nH]1,4.8,0.633,1.1,0.6,-0.9,13.7,nt
CSCC[C@H](NC(=O)COc1cc2c(c3oc(=O)c(C)c(C)c13)CCC(C)(C)O2)C(=O)O,-2.8,0.703,-1.4,-13.6,i,-2.1,-16.1%
# Next section:
SMILES,HNF4A DNA FP,E coli growth,Bfl-1 A1 inh,Beta2AR agonist,UCH37 inh,LANA-H2B inh,Vif TR-FRET
CCn1c(=O)c2cc(C(=O)Nc3ccc(OC)cc3OC)sc2c2ccccc21,1.4,0.766,0.1,9.0,-83.6,3.3,-3.4%
O=C1CC(c2cccs2)CC(O)=C1C=NCCN1CCNCC1 (stereo unspecified),3.4,0.671,2.0,-14.9,4.4,0.5,-1.6%
CCOc1cc(/C=N/N=C2/NC(=O)C(CC(=O)O)S2)ccc1OCc1ccccc1Cl (stereo unspecified),0.6,nt,0.6,8.4,nt,-2.7,-6.9%
Oc1ccc(C2=NN(c3ccccc3)C(c3ccc(F)cc3)C2)cc1 (stereo unspecified),-0.1,0.672,-0.5,-1.2,i,-4.3,-5.6%
Cc1cscc1NC(=O)/C=C/C(=O)O,3.5,0.704,-1.3,-5.2,2.9,-3.6,nt
CCN1CCN(c2ccc(S(=O)(=O)N3CCOCC3)cc2NC(=O)c2ccc(C)cc2C)CC1,5.1,0.71,0.4,0.1,-2.6,0.3,-6.0%
CCCc1nnc(NC(=O)CC(=O)Nc2ccccc2C(=O)O)s1,-1.4,0.721,-6.1,7.5,-1.1,2.2,-3.5%
CCOC(=O)c1cn2nc(Oc3ccc(NC(C)=O)cc3)ccc2n1,0.4,0.703,0.0,-5.6,4.2,-0.4,-0.1%
COc1cc(OC)cc(C(=O)N2CCC(N3CCN(c4ccccc4OC)CC3)CC2)c1,-0.5,0.679,0.2,1.9,2.3,-0.9,0.1%
Cc1nc(N2CCOCC2)c2cc(-c3ccccc3)sc2n1,-1.6,0.656,0.3,-5.1,-0.8,-8.1,0.0%
CC(C)CC(C(=O)NC(C)(C)C)N(Cc1ccccc1Cl)C(=O)c1snc(C(N)=O)c1N (stereo unspecified),2.0,0.646,1.0,-5.7,-29.8,6.1,nt
O=C(CS(=O)(=O)c1ccccc1)N1CCCCCC1,2.3,0.721,0.4,0.9,-3.5,-2.7,4.5%
COc1cc(OC)c(C(=O)NCc2ccco2)cc1OC,0.8,0.68,-0.8,2.6,2.9,8.3,nt
CCCN1CCOC(CC(=O)Nc2ccc([N+](=O)[O-])cc2)C1=O (stereo unspecified),-3.7,0.699,0.7,3.1,5.6,0.7,-2.3%
C=CCOn1c(=O)c(-c2ccc(Br)cc2)[n+]([O-])c2ccccc21,-2.7,0.722,-0.2,-9.6,-14.2,1.1,-6.9%
COc1ccccc1CNC(=O)C(NS(=O)(=O)c1ccc2c(c1)oc(=O)n2C)C(C)C (stereo unspecified),-3.1,0.713,0.3,-2.5,6.6,-3.5,3.0%
CC(C)(C)CN1C(=O)C(=O)NC[C@H]1Cc1cccc2ccccc12,3.0,nt,0.5,-7.1,0.6,-1.8,-0.3%
COc1ccc(C(CC(=O)O)NC(=O)OC(C)(C)C)cc1 (stereo unspecified),0.8,0.731,0.0,-3.3,4.9,2.1,-0.1%
CCN(Cc1ccccc1)C(=O)Cn1c(C(C)O)nc2ccccc21 (stereo unspecified),0.1,0.602,0.2,-4.5,-1.4,2.4,-14.7%
COc1ccccc1NC(=O)CSc1nccc(=O)[nH]1,-0.7,0.643,1.1,0.2,8.9,-2.2,7.7%
Cc1cc(=O)c2n(Cc3ccccc3Cl)nc[n+]2[nH]1,1.2,0.649,0.4,-4.8,1.0,-4.2,16.7%
